# Measles inh = inhibitors of measles virus growth in infected cells; infected Vero cells, GFP fluorescence, 64 h; active compounds read low; z-score (test concentration not listed); 33,000 tested, 0.1% active;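 active = z-score under -3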;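 also: score is relative to mean and SD of the compound wells of a plate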
# * marks the source's active call; other numbers are inactive results. A portion of the library; rates above refer to the full screens.
cpd	canonical_smiles	Measles inh
1	Cc1cc2ncn(C(=O)Cc3ccc(F)cc3)c2cc1C	-1.09
2	NC(=O)CSc1nc2c([nH]c3ccccc32)c(=O)n1-c1ccc(F)cc1	0.48
3	CCCCCNC(=O)Cn1c(=O)[nH]c2ccsc2c1=O	1.59
4	CCOc1ccccc1C(=O)NC(Nc1sc2c(c1C(=O)OC)CCCC2)(C(F)(F)F)C(F)(F)F	1.33
5	COc1cc(C2C(C(=O)c3ccco3)=C(O)C(=O)N2CC2CCCO2)ccc1O (configuration not stated)	1.39
6	COc1ccc(-n2c3c(cc(C(=O)NC4CCSC4=O)c2=O)C(=O)CC(C)(C)C3)cc1 (configuration not stated)	0.2
7	COc1ccc(OC)c(C2Oc3c(OC)cccc3C3CC(c4cccs4)=NN32)c1 (configuration not stated)	0.84
8	COC(=O)c1ccc(NC2(C#N)C(=O)Nc3ccccc32)cc1 (configuration not stated)	-0.43
9	O=C(O)CCC(=O)N1N=C(c2ccc([N+](=O)[O-])cc2)CC1c1ccccc1Cl (configuration not stated)	1.26
10	O=C(Nc1cnc2ccccc2c1)NC1(c2ccccc2)CC1	-0.84
11	CCOc1ccc(NC(=O)c2ccc(S(=O)(=O)N3CCOCC3)cc2)cc1	-0.36
12	CCCCCn1c(SCc2cccc(C)c2)nc2c1c(=O)[nH]c(=O)n2C	-0.36

# 4 of the compounds above, with each value named:
3) CCCCCNC(=O)Cn1c(=O)[nH]c2ccsc2c1=O
- Measles inh: 1.59
4) CCOc1ccccc1C(=O)NC(Nc1sc2c(c1C(=O)OC)CCCC2)(C(F)(F)F)C(F)(F)F
- Measles inh: 1.33
5) COc1cc(C2C(C(=O)c3ccco3)=C(O)C(=O)N2CC2CCCO2)ccc1O (configuration not stated)
- Measles inh: 1.39
6) COc1ccc(-n2c3c(cc(C(=O)NC4CCSC4=O)c2=O)C(=O)CC(C)(C)C3)cc1 (configuration not stated)
- Measles inh: 0.2

# (more compounds)
cpd	canonical_smiles	Measles inh
13	Cc1ccc(S(=O)(=O)CC(C)N2CCCCC2)c(S(=O)(=O)CC(C)N2CCCCC2)c1 (configuration not stated)	0.33
14	COC(=O)c1ccc2c(c1)nc(SCc1cc(=O)n3cc(Cl)ccc3n1)n1c3ccccc3nc21	-0.04
15	O=C1C2CC=CCC2C(=O)N1c1ccc(O)cc1 (configuration not stated)	1.14
16	CCN(CCNC(=O)C1CCC(=O)N1Cc1ccc(C)cc1)c1ccccc1 (configuration not stated)	-1.79
17	COc1cc(C2C=C(c3cccs3)Nc3ncnn32)cc(OC)c1OC (configuration not stated)	2.05
18	COc1ccc(NC(=O)C2C3C=CC4(O3)C2C(=O)N(CC2COc3ccccc3O2)C4C(=O)NC2CCCC(C)C2C)cc1 (configuration not stated)	0.13
19	COc1ccc(CNC(=O)C2C3C=CC4(CN(Cc5cccs5)C(=O)C24)O3)cc1 (configuration not stated)	-2.03
20	COc1ccc(C2C(C(=O)N(C)C3CCCCC3)c3ccccc3C(=O)N2C2CCCCC2)cc1 (configuration not stated)	-0.41
21	O=C(Nc1ccc(Br)cc1)c1cc(-c2ccc3c(c2)OCO3)on1	-0.9
22	COc1cc(Nc2nc(SCc3cccc([N+](=O)[O-])c3)nc3ccccc23)cc(OC)c1OC	0.03
23	CCCCn1c(CN2CCCCC2CC)nc2c1c(=O)n(C)c(=O)n2C (configuration not stated)	-0.08
24	CCOc1ccc(C(=O)O)cc1[N+](=O)[O-]	-0.06
25	Cc1cc(C)c(S(=O)(=O)N2CCCN(S(=O)(=O)c3c(C)cc(C)cc3C)CC2)c(C)c1	-0.53
26	Cc1ccc(-n2c(=O)c3c4c(sc3n3c(SCc5ccccc5)nnc23)COC(C)(C)C4)cc1	0.17
27	CC(C)(C)N=C(NS(=O)(=O)c1ccc(F)cc1)c1ccccc1	-0.34
28	CC1CCN(C(=O)CCCN2C(=O)c3cccc4cccc(c34)C2=O)CC1	0.33
29	Cc1cc(Cl)ccc1OCC(=O)Nc1ccc(-c2nc3ncccc3o2)cc1	-0.43
30	S=c1[nH]nc(COc2ccccc2)o1	-0.16
31	CCOC(=O)c1cc2c(=O)n3ccccc3nc2n(C)c1=NC(=O)c1ccc(OC)c(OC)c1	-0.1
32	COc1ccc(N2CCN(C(=O)c3ccc(S(=O)(=O)CC4CCCO4)c([N+](=O)[O-])c3)CC2)cc1 (configuration not stated)	-1.02
33	CCOc1ccc(NS(=O)(=O)c2ccc3c(c2)C2C=CCC2C(c2ccc(C(=O)O)cc2)N3)cc1 (configuration not stated)	1.44
34	COC(=O)c1cc(-c2cccc(OC)c2OC)no1	-0.11
35	CCc1ccc(Oc2coc3cc(OC(=O)C4CCCCC4)ccc3c2=O)cc1	1.17
36	O=c1c2c(nc3c(-c4ccccc4)c[nH]n13)CCC2	0.77
37	COCCNc1cccc2c1C(=O)c1ccccc1C2=O	-0.8
38	CCc1c(C#N)c(SCC(=O)Nc2nsc(-c3ccccc3)n2)nc2c1C(=O)CC(C)(C)C2	0.08
39	O=C(CSc1nnc(-c2ccc(Cl)s2)o1)Nc1nccs1	0.59
40	Cc1c(Cl)cccc1NC(=O)CCCOc1ccccc1	2.59
41	CC(C)C1N=C2c3ccccc3N=C(SCc3cc(=O)n4cc(Br)ccc4n3)N2C1=O (configuration not stated)	-0.24
42	COc1ccc2nc(NC(=O)c3ccc(C)c(C)c3)sc2c1	-0.3
43	COc1ccccc1NC(=O)c1c(N=Cc2c(O)ccc3ccccc23)cnn1C	-1.43
44	CCc1ccccc1NC(=O)C1CCN(S(=O)(=O)c2cc(Br)cc3c2N(C(C)=O)CC3)CC1	-0.01
45	CC(=O)Nc1ccc(N2C(=O)c3ccc([N+](=O)[O-])cc3C2=O)cc1	0.06
46	CCOC(=O)c1cccc(NC(=O)C2CCN(S(=O)(=O)c3cccnc3)CC2)c1	0.56
47	Cc1ccc(-n2nc3c(c2NC(=O)c2ccc(C)c(C)c2)CS(=O)(=O)C3)c(C)c1	1.43
48	Cn1cc(C(=O)N2CCc3ccccc3C2)c(=O)c2cc(S(=O)(=O)N3CCOCC3)ccc21	-0.92
49	COc1ccc(C2=NN(C(C#N)c3ccc(OC)cc3)C(c3ccccc3)C2)cc1 (configuration not stated)	0.32
50	O=c1c(-c2ccc(Br)cc2)coc2cc(O)cc(O)c12	0.3
51	Cc1c(C(=O)OCC2CCCO2)[nH]c2c1C(=O)CC(c1ccccc1Cl)C2 (configuration not stated)	-0.46
52	CCC12CN3CC(CC)(CN(C1)C3c1ccc([N+](=O)[O-])o1)C2=O (configuration not stated)	-0.24
53	CCOC(=O)C1(C)C=C(Nc2cccc(OC)c2)C(=O)N1c1ccccc1 (configuration not stated)	-0.44
54	COc1ccc(Cl)cc1NC(=O)CSc1nc(-c2cccs2)nc2c1c(=O)n(C)c(=O)n2C	0.46
55	Cc1cccc(Oc2ncnc3sc4c(c23)CCCC4)c1	-0.14
56	COc1ccc(-c2cn(-c3ccc(OC)cc3)c(SCC(=O)Nc3ccccc3)n2)cc1	-0.39
57	O=C(NCc1ccc(F)cc1)c1ccc(Cn2c(=S)[nH]c3ccccc3c2=O)cc1	-0.58
58	CCc1c(C#N)c(N)nc2sc(C(=O)c3ccc(Br)cc3)c(N)c12	-1.58
59	Cc1ccc(Cl)cc1NC(=O)c1oc2ccc(S(=O)(=O)N3CC(C)CC(C)C3)cc2c1C (configuration not stated)	1.94
60	Cc1nc(SCC(=O)O)c(C#N)c(C)c1Cl	-0.3
61	CCCSc1nc2c(c(=O)n1-c1ccc(OCC)cc1)SCC2	1.18
62	CCOC(=O)c1c(NC(=O)COc2ccc3c(c2)OCO3)sc2c1CCCCC2	0.55
63	Cc1ccc(S(=O)(=O)c2c(O)cc(C)c(NS(=O)(=O)c3ccc(Cl)cc3)c2C)cc1	-0.57
64	Cc1c(Cl)cccc1NC(=O)c1cc(S(=O)(=O)NCc2ccco2)ccc1F	0.6
65	COc1cccc(CNc2c(C)n(C)n(-c3ccccc3)c2=O)c1O	-0.29
66	O=C(CSc1nnc(-c2ccccc2)c(-c2ccccc2)n1)NC1CCCCC1	2.14
67	COC(=O)C1=CN(Cc2ccc(OC)cc2)C=C(C(=O)OC)C1c1ccc(C)c([N+](=O)[O-])c1	0.61
68	CCC1=NN(C(=O)COc2cc(C)ccc2C(C)C)C(O)(C(F)(F)F)C1 (configuration not stated)	0.85
69	Cc1cc(=O)[nH]c(SCc2cccc(Oc3ccccc3)c2)n1	-0.18
70	O=C(CCNS(=O)(=O)c1cccc2nsnc12)NCC1COc2ccccc2O1 (configuration not stated)	-0.54
71	O=C(NCC1CCCO1)c1c(O)c2cccc3c2n(c1=O)CCC3 (configuration not stated)	-0.23
72	COc1ccc(CCNC(=O)CCn2c(=O)[nH]c3ccsc3c2=O)cc1OC	1.53

# (list continues)
cpd	canonical_smiles	Measles inh
73	COC(=O)c1ccc(CSC2=NCN(CCO)CN2)cc1	-0.31
74	c1ccc(CCn2c(SCCN3CCOCC3)nc3ccccc32)cc1	0.42
75	Cc1ccc(N/C(=N\c2nc(C)cc(C)n2)NC(=O)c2ccccc2)c(C)c1	-0.05
76	CC1CCCCC1NC(=O)CN1C(=O)COc2ccc(S(=O)(=O)N3CCCC3)cc21 (configuration not stated)	-0.56
77	CCOC(=O)c1c(NC(=O)CN2C(=O)c3ccccc3C2=O)sc2c1CCC2	1.12
78	O=C(Nc1ccc(Br)cc1)c1cc(-c2ccc(Br)cc2)on1	0.53
79	O=C(CN1CCOCC1)Nc1cccc([N+](=O)[O-])c1	-0.06
80	COc1ccc(OC)c(Nc2c3c(nc4ccc(Cl)cc24)CCCC3)c1	0.47
81	O=C(CCCCCn1c(=S)[nH]c2cc3c(cc2c1=O)OCO3)NCc1ccccc1Cl	-0.4
82	C=CCSc1nnc2c(n1)OC(c1ccc([N+](=O)[O-])cc1)Nc1ccccc1-2 (configuration not stated)	0.91
83	CCOC(=O)c1c(N2C(=O)C3CC(C)=C(C)CC3C2=O)sc2c1CCCC2 (configuration not stated)	-0.02
84	CC1=C(C(=O)OC2CCCCCC2)C(c2cccc(O)c2)C2=C(CCCC2=O)N1 (configuration not stated)	0.76
85	Cc1cc(NC(=O)C(C)C)nc2c1c(=O)oc1ccccc12	1.94
86	COC(=O)c1c(NC(=O)c2ccc(S(=O)(=O)N(C)c3ccccc3)cc2)sc2c1CC(C)(C)NC2(C)C	-0.01
87	O=C(NCCc1c[nH]c2ccccc12)Nc1ccccc1	-0.4
88	COc1ccc(-c2ccc(Cc3nc(-c4ccc(OC)cc4)no3)cc2)cc1	-0.03
89	COc1ccc(C(=O)Nc2cc(-c3nc4cc(C)ccc4o3)ccc2Cl)cc1Cl	-0.28
90	CC(=O)N1CCc2cc(S(=O)(=O)NCCC3=CCCCC3)ccc21	-0.04
91	O=C(NC12CC3CC(CC(C3)C1)C2)c1ccccc1Nc1cccc(C(F)(F)F)c1	0.88
92	O=C(C1=C(O)C(=O)N(CCCn2ccnc2)C1c1cccc([N+](=O)[O-])c1)c1cccs1 (configuration not stated)	-0.29
93	COc1ccc2nc(N=CN(C)C)sc2c1	0.73
94	Cc1ccc(S(=O)(=O)N2CCCC2C(=O)n2nc(C)c(Sc3ccccc3[N+](=O)[O-])c2C)cc1 (configuration not stated)	0.1
95	CCC1CCCCN1C(=O)CSc1nc(-c2ccco2)cc(C(F)(F)F)n1 (configuration not stated)	-0.56
96	O=C(Nc1ccc(C(=O)N2CCOCC2)cc1)c1nn2c(C(F)(F)F)cc(-c3ccccc3)nc2c1Br	0.01
97	O=C(OCc1ccc([N+](=O)[O-])cc1)c1c2c(nc3ccccc13)CCCC2	-0.32
98	CN(C)C=Nc1ccc2nonc2c1	-0.18
99	O=C(Nc1ccc(NC(=O)c2cccnc2Cl)cc1)c1ccco1	0.75
100	Cc1nc2sccn2c1-c1csc(Nc2ccc([N+](=O)[O-])cc2)n1	-0.81
101	CCOC(=O)c1cccnc1SCC(=O)Nc1cccc(CC)c1	-0.76
102	COCCN1C(=O)c2ccccc2C(C(=O)NCCc2cccc(C)c2)C1c1cn(C)c2ccccc12 (configuration not stated)	1.44
103	CC1=C(C(=O)OC2CCCC2)C(c2ccccc2)C2=C(CC(c3ccccc3)CC2=O)N1 (configuration not stated)	0.01
104	O=C(Nc1ccc(-c2nc3ccccc3[nH]2)cc1)c1cccc(OCc2ccccc2)c1	-1.11
105	O=S(=O)(NC1CCCCC1)c1cccc2nsnc12	-0.21
106	Cc1ccc(N2C(=O)C(N3C(=O)c4cccc([N+](=O)[O-])c4C3=O)C2c2cccs2)cc1Cl (configuration not stated)	1.11
107	O=C1CSC(=O)N1CCN=C1NS(=O)(=O)c2ccccc21	0.41
108	O=C1c2ccc([N+](=O)[O-])cc2C(=O)N1c1c[nH]c(=O)[nH]c1=O	0.02
109	O=C(Nc1nc(-c2ccc(F)cc2)cs1)c1ccc(Cc2ccccc2)cc1	0.69
110	O=C(O)c1ccccc1Nc1cccc2c1C(=O)c1ccccc1C2=O	-0.35
111	COc1ccccc1CNC(=O)c1ccc(Cl)c([N+](=O)[O-])c1	0.36
112	Cn1c(C#CC(C)(C)O)cc2ccccc21	-0.99
113	O=C(NCc1ccc(N2CCCC2=O)cc1)c1ccc(F)cc1	0.9
114	CC1(CC(=O)Nc2ccccc2)Nc2ccccc2C(=O)N1c1ccccc1 (configuration not stated)	2.12
115	COc1ccc(OC)c(C2NC(=O)NC(C)=C2C(=O)Nc2ccccc2Cl)c1 (configuration not stated)	-0.26
116	O=C(NCCCN1CCOCC1)c1cc(=O)[nH]c2ccc(S(=O)(=O)N3CCCCC3)cc12	-0.36
117	COCCN1C(=O)c2ccccc2C(C(=O)NCc2ccccc2OC)C1c1c[nH]c2ccccc12 (configuration not stated)	0.51
118	Cc1c(NC(=O)c2ccccc2)cc(S(=O)(=O)c2ccc(Cl)cc2)c(O)c1C	0.76
119	CCOC(=O)C1=C(C)Nc2nc(SCc3cccc(C)c3)nn2C1c1ccc(Br)cc1 (configuration not stated)	-0.66

# Shown as labelled records: entries from further up.
114	CC1(CC(=O)Nc2ccccc2)Nc2ccccc2C(=O)N1c1ccccc1 (configuration not stated)
- Measles inh: 2.12

115	COc1ccc(OC)c(C2NC(=O)NC(C)=C2C(=O)Nc2ccccc2Cl)c1 (configuration not stated)
- Measles inh: -0.26

116	O=C(NCCCN1CCOCC1)c1cc(=O)[nH]c2ccc(S(=O)(=O)N3CCCCC3)cc12
- Measles inh: -0.36

117	COCCN1C(=O)c2ccccc2C(C(=O)NCc2ccccc2OC)C1c1c[nH]c2ccccc12 (configuration not stated)
- Measles inh: 0.51
